FGF22 binding – binders of human FGF22 protein, primary screen, FGF22 synaptogenesis inhibitor project, biophysical, thermal shift, single point. recombinant FGF22 thermal shift, SYPRO orange fluorescence; percent of sucrose octasulfate shift, DMSO zero. calls only at 9.99 µM. 1.5% of 340,000 active. AID 651658, 2012;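 active = melting point raised past a set limit in the mean and every replicate; inconclusive = no clear call; three in four hits are not shown here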
Target sequence (Q9HCT0 whole entry, looked up): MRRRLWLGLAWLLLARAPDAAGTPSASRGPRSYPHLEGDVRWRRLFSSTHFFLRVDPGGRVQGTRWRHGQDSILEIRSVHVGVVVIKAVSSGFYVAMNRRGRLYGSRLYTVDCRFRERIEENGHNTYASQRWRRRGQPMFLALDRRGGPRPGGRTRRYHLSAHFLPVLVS
UCH37 DUB inh – inhibitors of human UCH37 deubiquitinase, primary screen, biochemical, Ub-AMC cleavage, fluorescence. Ubiquitin carboxyl-terminal hydrolase isozyme L5 (Homo sapiens), Q9Y5K5. purified proteasome/UCH37. inhibition, % (no concentration beside the values). 0.33% of 330,000 active. AID 588478, 2011;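 active = mean of two replicates above 20%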;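 also: 0% = compound-free wells with enzyme and 100% = wells lacking proteasome; stock transfer was 100 nL into about 20 µL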
Target sequence (Q9Y5K5 whole entry, looked up): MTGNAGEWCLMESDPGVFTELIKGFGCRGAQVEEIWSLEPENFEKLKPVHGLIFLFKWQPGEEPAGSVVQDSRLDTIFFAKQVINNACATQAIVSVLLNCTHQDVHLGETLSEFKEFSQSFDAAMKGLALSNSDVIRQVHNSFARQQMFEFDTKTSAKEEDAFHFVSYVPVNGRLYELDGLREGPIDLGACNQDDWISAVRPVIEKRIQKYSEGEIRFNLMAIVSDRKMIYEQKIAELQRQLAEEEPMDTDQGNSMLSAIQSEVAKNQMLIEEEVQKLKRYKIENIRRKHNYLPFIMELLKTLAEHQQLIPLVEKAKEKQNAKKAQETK
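Material: Human UCH37 enzyme supplied as purified proteasome complex | Schedule: 30 min preincubation with enzyme, 25 min cleavage at room temperature | Detection: AMC fluorescence 355/460 nm | Measure: % inhibition of Ub-AMC cleavage fluorescence | Controls: Wells without proteasome as full block, compound-free enzyme plus substrate as uninhibited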
MLL AF4-AF9 inh – inhibitors of AF4 peptide binding to AF9, primary screen, biochemical, AlphaScreen, biotin-AF4 peptide, FLAG-AF9, single point. Protein AF-9 (Homo sapiens), P42568. inhibition, % at 10 µM. 0.47% of 350,000 active. AID 651704, 2012;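 active = every replicate reaching a set inhibition limit, whatever the replicate mean, cut at about 25% in these data; inconclusive = mean inhibition reaches that limit but some replicates miss it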;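 also: 0% = plate neutral control median and 100% = total signal loss; the record names both 10 and 1 µM as test concentration; the first replicate is given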
Target sequence (P42568 whole entry, looked up): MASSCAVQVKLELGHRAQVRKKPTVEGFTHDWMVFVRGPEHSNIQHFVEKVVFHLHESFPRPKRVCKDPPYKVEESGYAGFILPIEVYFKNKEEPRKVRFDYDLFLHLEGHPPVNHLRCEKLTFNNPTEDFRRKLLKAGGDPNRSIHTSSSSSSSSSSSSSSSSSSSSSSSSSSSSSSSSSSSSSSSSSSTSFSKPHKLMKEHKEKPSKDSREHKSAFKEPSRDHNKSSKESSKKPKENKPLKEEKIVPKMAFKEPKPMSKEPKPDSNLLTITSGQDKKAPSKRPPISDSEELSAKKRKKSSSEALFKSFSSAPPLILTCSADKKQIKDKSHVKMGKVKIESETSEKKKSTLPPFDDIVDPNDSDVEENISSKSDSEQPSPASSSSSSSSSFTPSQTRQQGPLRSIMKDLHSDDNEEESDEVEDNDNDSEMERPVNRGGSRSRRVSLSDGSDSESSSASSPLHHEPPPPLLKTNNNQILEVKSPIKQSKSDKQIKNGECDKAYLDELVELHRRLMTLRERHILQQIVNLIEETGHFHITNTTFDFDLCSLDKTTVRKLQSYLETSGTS
E coli growth – E. coli growth inhibition, primary screen, OD600; Escherichia coli growth, 23 h; active compounds read low; OD600 absorbance (test concentration not listed); 0.21% of 330,000 active;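 active = OD600 absorbance below the run mean of sample wells minus 3.6 SD, in any replicate, cut at about 0.56 in these data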;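 also: stock transfer was 300 nL into about 60 µL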
HNF4A DNA FP – change in binding of human HNF4A to DNA, primary screen, biochemical, fluorescence polarization, FITC-DNA | Hepatocyte nuclear factor 4-alpha (Homo sapiens), P41235 | 1 h | activity change, % at 10 µM | 0.3% of 360,000 active | AID 1224865, 2016; in the data active = activity change above about 30%, passing the limit was not always enough;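 also: controls were the assay level and a saturating level of protein; the project sought stronger binding though the title names inhibitors; some compounds called inactive have numbers as strong as hits; positive values seem to mean higher polarization but the record does not say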
RanGTP-Impb inh – inhibitors of RanGTP-importin-beta interaction, primary screen, biochemical, FRET, CFP-Ran, YFP-importin-beta, homogeneous | inhibition, % (test concentration not listed) | AID 2216, 2009 | Ran GTPase (GTP-bound) - importin-beta complex | cell-free CFP-Ran/YFP-importin-beta FRET ratio | 1.1% of 300,000 active;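 active = most replicates above 15%; inconclusive = exactly half above 15%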;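 also: 0% = DMSO wells and 100% = Ran loaded with GDP instead of GTP; wells of about 40 µL received 100 nL stock; the first replicate is given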
Vif TR-FRET – inhibitors of Vif binding to APOBEC3G peptide, primary screen, biochemical, TR-FRET, GST-Vif 1-94, biotin-A3G peptide, dose response retest (AID 1117319). Virion infectivity factor (Human immunodeficiency virus type 1 group M subtype B (isolate …. TR-FRET GST-Vif / biotin-A3G peptide binding; higher % means a stronger effect; test concentration not given here; strong numbers were not always called active. inhibition, %; hits with a dose series show IC50 in µM. 0.57% of 260,000 active;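 active = above the screen mean plus three standard deviations and confirmed in dose response; inconclusive = results disagree or hit not tested in dose response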;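 also: Vif residues 1-94 fused to GST binding biotinylated APOBEC3G peptide 110-148; 0% = full assay without inhibitor and 100% = GST in place of GST-Vif; retest series ran down from 100 µM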
An asterisk follows results filed as active; i = inactive; u = inconclusive; x = no result given; & = joins results of further samples.

SMILES	FGF22 binding	UCH37 DUB inh	MLL AF4-AF9 inh	E coli growth	HNF4A DNA FP	RanGTP-Impb inh	Vif TR-FRET
COc1cccc(CNC(=O)c2nnn(CC(=O)Nc3ccc4c(c3)OCO4)c2N)c1	i	-0.3	-22.4	0.679	0.6	-7.2	14.0%
Cc1csc(NC(=O)C2CCCN(S(=O)(=O)c3ccc(Br)s3)C2)n1 (stereo unspecified)	x	4.8	x	0.667	2.2	-4.3	3.2%&-5.6%
Cc1cc([N+](=O)[O-])ccc1NC(=O)C(C)NC1CCCCC1 (stereo unspecified)	i	1.8	3.7	0.689	-0.8	2.2	x
Cc1cc(NC(=O)CSCC(=O)OCC(=O)c2ccc(Br)cc2)no1	i	x	-1.8	x	-1.3	x	-1.1%
COc1ccc(-c2cc(-c3ccccc3)nc(SC(C)C(=O)O)c2C#N)cc1 (stereo unspecified)	i	-7.1	-5.7	0.659	1.0	0.5	x
Cc1cc(OCC(=O)Nc2ccccc2N2CCCCC2)ccc1C(C)C	i	-13.4	0.4	0.682	1.2	7.9	1.7%
COc1ccc(/C=C2\SC(=O)N(CCC(=O)N3CCCCC3CCO)C2=O)cc1 (stereo unspecified)	i	8.6	1.4	0.642	1.0	2.3	x
CC(C)n1c(O)c(N=Nc2ccc(Cl)nn2)c2ccccc21	x	5.5	x	0.711	33.1	-0.7	-4.0%
COc1ccc(NC(C)=O)cc1NC(C)C(=O)Nc1cccc(S(=O)(=O)N2CCOCC2)c1 (stereo unspecified)	i	2.2	2.8	0.653	0.9	x	4.0%
O=C(NCC1CCCO1)C1CCCN1C(=O)Nc1ccccc1[N+](=O)[O-] (stereo unspecified)	i	5.8	0.7	0.653	-3.1	0.1	x
COc1cc(C=NNC(=O)c2ccc(NS(=O)(=O)c3cccs3)cc2)cc(Br)c1O	i	7.5	1.9	0.685	-5.3	x	-2.6%
CSc1cccc(N=C2C(=O)Nc3ccccc32)c1	i	1.4	3.0	0.679	6.0	5.4	x
Cc1ccc(/C=C/S(=O)(=O)N2CCC(C(=O)O)CC2)cc1	x	1.3	x	0.625	-5.3	-0.5	2.8%
COC(=O)[C@]12CCCCC=C1N(Cc1ccco1)C(=O)[C@H](CC(=O)NCCCCc1ccccc1)C2	i	x	0.8	x	3.1	x	x
COc1ccc2[nH]c3c(c2c1)CCC/C3=N\N	i	x	x	x	5.1	0.8	2.6%
COc1cc2c(cc1[N+](=O)[O-])-c1ccc([N+](=O)[O-])cc1C2	i	x	9.8	x	2.2	x	x
Cc1cccc(C(=O)NC2CCN(CC(=O)NCc3ccccc3F)CC2)c1	i	5.6	-1.4	0.662	1.6	0.3	x
CCCCCC(=O)NNC1=NCC(Cc2ccccc2)S1 (stereo unspecified)	i	1.6	1.3	0.711	-2.2	0.6	-1.3%
O=C(C[C@H]1CC[C@@H]2[C@H](COC[C@@H](O)CN2Cc2ccc(Cl)cc2)O1)NCCc1ccccc1	i	x	-1.4&0.6	x	-1.6	x	x
COC(=O)c1ccc(C(=O)OC)c(NC(=S)N2CCCC(C)C2)c1 (stereo unspecified)	x	-4.8	x	0.673	-3.0	54.0*	-5.0%
COc1ccc(-c2nnc(SCC(=O)N3CCc4ccccc4C3)o2)cc1	x	7.9	x	0.663	1.7	1.4	u
COc1ccc(CN2CCC(N(CCc3ccccc3)Cc3ccccc3)CC2)c(OC)c1	i	x	30.1*	x	3.0	0.0	-8.2%
Cc1ccc(C(=O)Nc2cccc(O)c2)cc1S(=O)(=O)N1CCCCCC1	i	8.1	-23.9	0.634	1.7	7.3	x
CC(=O)Nc1cccc(-n2c(=O)n(Cc3ccccc3)c(=O)c3[nH]cnc32)c1	i	1.1	-1.6	0.659	-3.0	2.2	6.5%
Cc1cccc(C)c1NC(=O)C1=C(O)c2sccc2N(C)S1(=O)=O	i	4.6	-2.2	0.666	-1.8	45.8*	3.7%
(more compounds)
SMILES	FGF22 binding	UCH37 DUB inh	MLL AF4-AF9 inh	E coli growth	HNF4A DNA FP	RanGTP-Impb inh	Vif TR-FRET
CCCC1C(C#N)=C(N)Oc2n[nH]c(C(C)(C)C)c21 (stereo unspecified)	x	6.9	x	0.775	1.2	1.7	2.2%
CCOC(=O)c1ccc(N=c2sc(C(=O)OC)cc(=O)n2-c2ccc(C(=O)OCC)cc2)cc1	i	3.0	6.4	0.769	2.9	1.3	18.0%
O=C(NCC(=O)N1CCCCCCC1)c1ccco1	i	4.3	-7.6	0.669	1.6	x	-8.7%
NNC(=O)c1csc(-c2cccc(C(F)(F)F)c2)n1	i	0.5	-8.4	0.685	2.6	3.3	-2.3%
c1ccc(-c2nc(Sc3ncnc4c3cnn4-c3ccccc3)n[nH]2)cc1	x	2.8	x	0.71	x	3.3	-0.8%
CCOCCn1ccc2c(OCC(=O)Nc3ccc(OC)cc3OC)cccc2c1=O	i	-3.4	-1.3	0.733	-4.4	3.0	-0.7%
CC(=O)N1CCN(c2ccccc2NC(=O)COc2cc(C)ccc2C(C)C)CC1	x	2.0	x	0.757	5.1	-3.3	13.6%
Cc1ccc(S(=O)(=O)N2CCOCC2)cc1C(=O)NCc1ccccn1	i	2.5	0.0	0.649	4.9	x	x
O=C(Nc1ccc2c(c1)OCCO2)C(C1CC1)N1CCN(c2ccc(F)cc2)CC1 (stereo unspecified)	i	x	-2.1	x	-0.8	x	x
O=C(O)/C=C/c1ccc(S(=O)(=O)Nc2ccccc2C(=O)Nc2ccc(F)cc2)cc1	x	0.8	-0.2	0.696	1.3	-0.8	-2.4%
CCOC(=O)c1sc(NC(=O)CCN2C(=O)c3ccccc3C2=O)c(C(=O)OCC)c1C	i	4.1	-4.0	0.677	3.1	2.9	31.6%
COC(=O)c1sc(C(C)(C)C)cc1CSc1ccccc1	i	2.7	-6.0	0.681	-2.6	-0.3	-0.2%
COc1ccc(CN2CCN(c3nc4ccccc4s3)CC2)cc1	i	-2.1	-4.1	0.634	-1.5	-3.4	-11.5%
O=C(COc1ccc2ccccc2c1)Nc1ccc(Cc2ccncc2)cc1	i	3.1	-2.5	0.685	6.1	3.8	-0.8%
O=C(NCc1cccnc1)C1CCN(S(=O)(=O)c2cc(Cl)ccc2Cl)CC1	i	1.5	1.5	0.592	-0.3	-1.3	x
CCCC[C@@H]1CNC(=S)N1CCc1cccc(F)c1	i	3.8	-0.2	x	0.8	-2.0	-3.1%
COc1cc(/C=N/Nc2nc3ccccc3[nH]2)ccc1O	i	x	13.8	x	-2.9	1.4	-4.0%
Cc1ccc(S(=O)(=O)Cc2ccc(C(=O)N3CCN(c4cccc(C)c4C)CC3)o2)cc1	i	-1.2	1.5	0.768	-0.9	-0.4	x
O=C(NCc1ccccc1)C(c1cccnc1)N(Cc1ccco1)C(=O)c1ccccn1 (stereo unspecified)	x	0.7	x	0.698	1.4	-1.0	-1.9%
Cc1nnc(SCC(=O)N(C)c2ccccc2)n1Cc1ccccc1	i	2.8	-0.7	0.701	3.0	5.0	-6.4%
Cc1cc(NC(=O)c2ccc3sc([C@@H]4O[C@H](CO)[C@H](O)[C@H](O)[C@H]4O)nc3c2)n(C)n1	i	x	-4.7	x	0.0	x	x
CC(C)(C)c1ccccc1NC(=S)NC1CCCCC1	i	1.7	2.1	0.695	-1.8	82.7*	-3.8%
CN(CC(=O)Nc1ccc(Cl)cc1)C(=O)Cc1c(F)cccc1Cl	i	1.0	-1.7	0.746	2.7	2.1	x
CCCn1c(SCC(=O)NCc2ccccc2)nnc1-c1ccncc1	x	0.4	x	0.703	-0.2	2.4	-2.5%
CC(C)NC(=O)N1c2ccccc2Sc2ccccc21	i	2.0	1.9	0.654	7.7	1.1	1.3%
Continuation.
SMILES	FGF22 binding	UCH37 DUB inh	MLL AF4-AF9 inh	E coli growth	HNF4A DNA FP	RanGTP-Impb inh	Vif TR-FRET
Cc1scc(C(=O)NNC(=O)CCC(=O)O)c1C	x	4.1	x	0.721	-1.3	0.7	15.1%
COc1ccc(-c2ccc3c(c2)C2CC3CCN2C(=O)OCc2ccccc2)cc1 (stereo unspecified)	i	3.8	-2.2	0.706	2.0	x	1.5%
COc1cccc(CNC(C)C(=O)Nc2ccc(S(=O)(=O)N3CCCC3)cc2)c1 (stereo unspecified)	i	-0.6	-1.2	0.682	5.0	x	x
CC1=NOC(=O)/C1=C/c1ccc(O)c(Br)c1	i	0.2	0.4	0.703	0.5	1.0	-5.8%
COC(=O)c1ccccc1NC(=O)CSc1ncn[nH]1	i	0.9	-2.7	0.656	1.5	5.9	-1.6%
COc1ccc(CCNC2CC(=O)N(CCc3ccccc3)C2=O)cc1OC (stereo unspecified)	x	3.4	x	0.709	1.0	u	x
O=C(Cc1cccs1)NCCN1CCOCC1	i	3.4	-3.5	0.698	-1.2	-1.8	2.3%
CC(C1CC1)N(Cc1ccccc1)C(=S)Nc1cccc(C(F)(F)F)c1 (stereo unspecified)	i	4.8	-4.6	0.62	4.2	0.9	-1.1%
Cc1[nH]c2ccccc2c1Cc1n[nH]c(=S)n1C	x	2.4	x	0.676	0.4	-0.7	-6.4%
COCCN(C(=O)COC(=O)CCC1CCCC1)c1c(N)n(Cc2ccccc2)c(=O)[nH]c1=O	i	2.8	1.7	0.676	-1.7	8.0	-2.5%
O=C1CCCC/C1=C\Nc1ccc(S(=O)(=O)Nc2cnc3ccccc3n2)cc1	i	18.9	9.4	0.674	9.7	2.7	-1.2%
C[C@H]1CN([C@@H](C)CO)C(=O)c2cc(Br)cnc2O[C@@H]1CN(C)C(=O)Nc1ccc(C(F)(F)F)cc1	i	x	-0.4&-0.7	x	1.7	x	9.4%
CCOC(=O)C1CCN(C(=O)C(=O)c2cn(CC(=O)N3CCCCCC3)c3ccccc23)CC1	i	2.1	0.2	0.671	1.8	-3.2	x
CC(=O)N1CCN(Cc2nc3scc(-c4ccccc4)c3c(=O)[nH]2)CC1	i	4.3	2.3	0.721	-0.5	5.6	-7.4%
COc1ccc(CSc2nnc(C)n2N)cc1	x	3.9	x	0.757	1.8	-4.1	0.6%
c1ccc(CSc2ncnc3c2cnn3Cc2ccccc2)cc1	x	4.1	x	0.679	4.3	u	0.4%
CCOC(=O)N1CCN(S(=O)(=O)N2CCCC(C(=O)NCCc3ccc(OCC)c(OCC)c3)C2)CC1 (stereo unspecified)	i	2.6	-13.4	0.714	1.2	2.7	x
CN1C(=O)SC(Nc2ccccc2C(=O)O)C1=O (stereo unspecified)	x	-2.1	x	0.68	2.9	4.2	1.4%
Cc1ccc2oc(=O)n(CCCOc3ccccc3)c2c1	x	2.7	x	0.695	-3.1	u	-5.2%
COc1cc(C(=O)Nc2nnc(SCC(=O)NCC3CCCO3)s2)cc(OC)c1OC (stereo unspecified)	i	4.4	-1.3	0.748	-1.0	-2.5	x
CCOc1ccccc1CSc1nc2ccccc2[nH]1	x	-0.1	x	0.613	4.2	0.3	x
COc1ccc(C(=O)COC(=O)c2cc(C)no2)c(OC)c1	i	1.0	8.2	0.682	0.1	x	6.5%

Just FGF22 binding, Vif TR-FRET and HNF4A DNA FP, for some of the entries so far:
smiles	FGF22 binding	Vif TR-FRET	HNF4A DNA FP
COc1ccc(CCNC2CC(=O)N(CCc3ccccc3)C2=O)cc1OC (stereo unspecified)	x	x	1.0
O=C(Cc1cccs1)NCCN1CCOCC1	i	2.3%	-1.2

Screens: PubChem, several laboratories

Only part of the results is shown. The share of hits here may be higher or lower than overall.
